# Screening data from PubChem BioAssay.
# HIV Env fusion = inhibitors of HIV-1 Env-driven cell-cell fusion, primary screen, HeLa-JRFL effector, CEM21 target cells, luciferase; inhibition, % at 12.3 µM; hit rate 1.1% among 360,000;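 active = mean replicate inhibition score of at least 50 and every replicate individually at or above 50; inconclusive = only one of the two criteria met; inactive = mean below 50 and not all replicates reaching 50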;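 note: 0% = plate neutral controls and 100% = maraviroc near 300 nM; one replicate is shown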
# CSC inhib = cancer stem cell viability inhibitors, primary screen, luminescence | cancer stem cell-like cells viability | inhibition, % at 7.5 µM | hit rate 1.1% among 300,000 | AID 2717, 2010;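 active = mean at 75% or more and at least half the replicates too; inconclusive = mean and replicates disagree; tested in HMLE shEcad cells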;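 note: 0% = median of negative and 100% = median of positive control wells; the first replicate is given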
# UUG fidelity = modulators of yeast start codon fidelity, primary screen, whole organism, S. cerevisiae, single point, plate reader; activity score, % at 18.7 µM; S. cerevisiae UUG-firefly luciferase reporter, luminescence/redox ratio; hit rate 0.13% among 350,000; AID 602363, 2012;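 active = replicate mean at a twofold rise or more, about +100% in these data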;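 note: firefly luciferase made from a UUG start codon reports start codon fidelity; reporter light over untreated wells divided by growth signal over untreated wells; some hits fall short of that in this replicate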
# Rce1 inhib = yeast Rce1p protease inhibitors, primary screen, biochemical, fluorescence, cell-free homogeneous | CAAX prenyl protease 2 (Saccharomyces cerevisiae (strain ATCC 204508 / S288c)), Q03530 | yeast membranes, quenched prenylated peptide cleavage fluorescence | calls only | hit rate 0.27% among 290,000 | AID 2563, 2010;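 active = fall in fluorescence gain of 50% or more versus controls, with final raw signal at or below 3038400; inconclusive = same 50% fall but final raw signal above 3038400; inactive = fall in fluorescence gain under 50%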;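 note: plate controls were neutral control wells for no effect and wells lacking membranes for full effect; tested at 10 µM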
# eIF4H FP inh = human eIF4H binding inhibitors, primary screen, translation initiation inhibitor project, biochemical, uHTS, fluorescence polarization. Eukaryotic translation initiation factor 4H (Homo sapiens), Q15056. eIF4H fluorescence polarization binding assay. inhibition, % at 35 µM. hit rate 0.94% among 290,000;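 active = 50% or more with normal probe brightness, or confirmed in later tests; inconclusive = above 50% with abnormal brightness, or retests that disagree; inactive = below 50% or failed in later tests; about a fifth of its hits are not listed in these tables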;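 note: calls also rest on retests at 20 µM and on dose response follow-up; 0% = protein and probe with vehicle and 100% = probe without protein; strong numbers were not always called active; many hits fall short of the cut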
# PABP FP inh = PABP poly(A) RNA binding inhibitors, primary screen, biochemical, fluorescence polarization, uHTS; inhibition, % at 35 µM; hit rate 1% among 290,000;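 active = 50% or more with normal probe brightness, or confirmed in later tests; inconclusive = above 50% with abnormal brightness, or retests that disagree; inactive = below 50% or failed in later tests; about a fifth of its hits are not listed in these tables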;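 note: calls also rest on retests at 20 µM and on dose response follow-up; controls were probe without protein and protein plus probe with vehicle; some compounds called inactive have numbers as strong as hits; many hits fall short of the cut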
# Target sequence (P11940 whole entry, looked up): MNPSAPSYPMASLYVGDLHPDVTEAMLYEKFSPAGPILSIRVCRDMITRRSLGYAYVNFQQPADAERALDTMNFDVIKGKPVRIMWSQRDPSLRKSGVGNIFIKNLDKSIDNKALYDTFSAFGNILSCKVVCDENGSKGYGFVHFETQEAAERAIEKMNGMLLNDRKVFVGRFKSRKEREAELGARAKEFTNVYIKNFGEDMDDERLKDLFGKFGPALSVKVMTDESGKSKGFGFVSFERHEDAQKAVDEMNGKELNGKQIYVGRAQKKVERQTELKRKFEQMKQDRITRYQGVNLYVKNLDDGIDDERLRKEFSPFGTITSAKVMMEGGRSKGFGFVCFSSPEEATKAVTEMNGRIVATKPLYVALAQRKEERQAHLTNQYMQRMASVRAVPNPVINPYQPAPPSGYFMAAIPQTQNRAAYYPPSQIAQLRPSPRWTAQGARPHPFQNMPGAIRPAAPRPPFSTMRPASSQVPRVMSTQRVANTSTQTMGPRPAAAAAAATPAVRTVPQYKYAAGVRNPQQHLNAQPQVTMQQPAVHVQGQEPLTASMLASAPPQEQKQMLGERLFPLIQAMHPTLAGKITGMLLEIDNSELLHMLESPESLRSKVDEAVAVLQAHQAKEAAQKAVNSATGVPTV
# MT1-MMP act inh = blockers of MT1-MMP proenzyme processing, primary screen, HT1080 RFP-PRO-GFP cells, GFP/RFP fluorescence; GFP/RFP ratio fluorescence, overnight; percent of plate control window, DMSO zero; GFP/RFP ratio change, % at 20 µM; hit rate 0.061% among 360,000; AID 651647, 2012;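 active = GFP/RFP ratio change of at least 30% with cell ATP level not reduced by more than half and red fluorescence within 50% of control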; note: strong numbers were not always called active
#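 Material: RFP-PRO-GFP reporter HT1080 cells. Dosing: single-point 20 µM compound, 1% DMSO. Controls: DMSO and RFP-L50D-GFP cell wells. Timing: cells overnight before dosing, compound overnight, 37 °C, 5% CO2. Measure: GFP/RFP fluorescence ratio.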
# eIF4H FP inh retest = also measured in eIF4H FP inh; calls as there; inhibition, %; compound at 20 µM; confirmation average;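 mean of two retest wells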
# PABP FP inh retest = further read-out of PABP FP inh, marked with its call; inhibition, %; compound at 20 µM; confirmation repeats;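 mean of two retest wells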
# MT1-MMP act inh RFP = second read-out of MT1-MMP act inh, no call of its own (marks repeat the call); RFP signal change, %; measured here: RFP expression control read;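 0 = vehicle wells; hits needed this value within 50% of zero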
# The depositor's hits bear a star; i = inactive; ? = inconclusive; · = no result given; & = joins results of further samples.
SMILES,HIV Env fusion,CSC inhib,UUG fidelity,Rce1 inhib,eIF4H FP inh,PABP FP inh,MT1-MMP act inh,MT1-MMP act inh RFP,others
CNc1c([N+](=O)[O-])cnn1-c1ccc(Cl)cc1,-106.9,-10.9,-21.2,i,6.1,-1.8,-3.4,0.2,
CCn1c(CNc2ccc(OC)cc2)nnc1SCC(=O)Nc1ccc(F)cc1,-84.3,-13.7,·,i,-15.7,8.0,0.6,4.4,
Cc1ccc(SCC(=O)NC(=O)NCc2ccccc2)c(C)c1,5.3,12.5,-24.2,i,-8.0,-8.4,-2.8,5.6,
Cc1ccc2nc(-c3ccccc3)c(CN3CCOCC3)n2c1,3.5,-6.4,·,i,6.2,-11.0,1.8,4.1,
O=C(Nc1ccc(OC(F)F)cc1)c1ncc(Cl)c(Cl)c1Cl,7.9,12.6,·,i,7.2,-12.4,0.4,2.6,
Cc1ccc2c(c1)c(C)cc[n+]2Cc1ccccc1,·,·,-14.0,i,6.1,2.1,-2.0,-13.6,
CC1C(=O)N2CCCc3cc(NC(=O)c4ccccc4F)cc1c32 (stereo not given),-25.7,6.9,-1.4,i,·,·,-3.4,1.7,
CCOC(=O)c1nn(-c2ccccc2)c(C(=O)OCC)c1N,·,-8.0,-15.7,?,-5.5,8.3,3.3,-3.4,
O=Cc1c(NCc2ccccc2Cl)c2ccccc2[nH]c1=O,-76.3,-11.5,-5.4,i,-3.0,-1.5,5.3,2.2,
COC(=O)C(C)n1cnc2c(nnn2-c2ccc(F)cc2)c1=O (stereo not given),-18.0,-5.9,2.6,i,-12.3,2.0,1.3,8.7,
O=C(NC(=S)Nc1ccc(Cl)cn1)C12CC3CC(CC(C3)C1)C2,-13.1,72.3,·,i,1.7,0.3,-5.4,-5.7,
O=C(c1ccc(Cl)cc1)N1CCN(c2cc(=O)[nH]nc2-c2ccccc2)CC1,19.3,-10.5,21.5,i,-0.6,4.7,-2.6,-2.3,
O=C(N/N=C/c1c[nH]c2ccccc12)c1[nH]c2ccc(Br)cc2c1-c1ccccc1,-221.4,·,-19.6,i,-8.8,12.0,9.7,-4.8,
Cc1ccc(NC(=O)CN(C)C(=O)c2cc(-c3ccccc3)nn2-c2ccccc2)cc1,4.4,·,10.3,·,·,·,-2.9,-0.7,
COc1ccc(OC)c(-c2cc(C3CCN(C(=O)OC(C)(C)C)CC3)[nH]n2)c1,23.5,4.0,-0.8,i,3.6,-1.0,-1.9,-2.6,
N#CC1=C(N)N2C(=C(C#N)C13CCCC3)Nc1ccccc12,1.1,-15.8,-21.0,i,3.5,2.0,-4.1,2.2,
O=C(NNC(=O)C1CCCC1)c1ccccc1F,1.0,·,-12.8,i,-0.3,8.2,0.1,1.6,
CCN(CC(=O)Nc1cccc(OC)c1)C(=O)c1cnc(Cl)c(Cl)c1,-9.0,-17.1,-13.0,i,-18.2,-1.4,0.1,-1.8,
O=C(C1CCOCC1)N1CCC(CO)(CCc2ccccc2)CC1,19.1,12.5,2.2,i,75.3,-1.5,-2.3,-1.2,eIF4H FP inh retest=-4.2;PABP FP inh retest=7.3
COc1ccc(/C=N/NC(=O)c2ccccc2O)cc1Cn1nnc2ccccc21,-41.5,4.6,-14.8,i,-4.7,-5.5,3.2,3.5,
CCN(C(=O)CSc1nc(C)nc2sc(C)c(C)c12)c1ccc(F)cc1,9.9,-5.6,-4.6,·,·,·,1.8,-6.9,
O=C(CN1CCN(S(=O)(=O)c2ccc3ccccc3c2)CC1)Nc1ccc2c(c1)CCC2,·,15.7,-12.6,i,0.1,11.6,3.1,-6.3,
COc1ccc(S(=O)(=O)NC(=O)C2(C)CCN2C(=O)c2c(C)noc2C)cc1 (stereo not given),-18.1,·,-23.6,·,·,·,-0.1,4.2,
CC(C)[C@H](NC(=O)N1c2ccccc2NC(=O)[C@@H]1C(C)C)C(=O)N[C@@H](Cc1ccccc1)C(=O)O,·,1.9,-6.4,i,2.6,-7.7,1.4,3.4,
COCc1cc(=O)[nH]c(SCC(=O)N2CCOCC2)n1,14.9,-35.2,-4.4,i,-4.7,6.2,0.3,2.8,
O=C(O)c1cc(S(=O)(=O)Nc2ccc3c(c2)OCCO3)c(Cl)cc1Cl,11.8,10.0,-39.9,i,-3.7,-11.6,1.0,4.1,
C[C@@H]1CN([C@H](C)CO)S(=O)(=O)c2ccc(-c3ccc(C#N)cc3)cc2O[C@H]1CN(C)C(=O)Nc1cc(F)ccc1F,?,·,-3.7&-9.3&-6.2,·,·,·,-1.2,-14.3,
CC1C(=O)OC(c2ccc(Cl)cc2)C(C)(C)C1=O (stereo not given),-11.8,9.6,-13.7,i,-11.1,-7.1,-2.6,0.9,
CCOc1ccc(Br)cc1S(=O)(=O)Nc1ccc(S(=O)(=O)Nc2cc(C)on2)cc1,-9.5,-12.8,-12.4,·,·,·,-0.5,3.8,
Cc1[nH][nH]c(=O)c1C(c1ccc(O)c(Br)c1)c1c(C)[nH][nH]c1=O,20.0,-13.2,-16.8,i,-1.6,11.6,0.7,-0.6,
O=C(c1nc2nc(-c3ccccc3)cc(C(F)(F)F)n2n1)N1CCCCC1,9.0,2.1,·,·,2.5,-6.1,-5.2,-4.7,
CS(=O)(=O)c1ccc(-c2csc(C(O)c3cccc(Cl)c3)n2)cc1 (stereo not given),-6.5,·,1.4,·,·,·,5.2,-6.9,
Cc1ccc(C)c(SCC(=O)OCC(=O)Nc2ncc(C(F)(F)F)cc2Cl)c1,19.2,-1.1,·,i,6.9,1.1,-7.2,3.7,
C[C@H](CO)N1C[C@H](C)[C@@H](CN(C)C)Oc2c(NS(=O)(=O)c3ccc(F)cc3)cccc2C1=O,-3.7,-1.9,1.7&-2.2,·,·,·,2.7,6.1,
Cc1ccc(C(=O)N=c2sccn2C)cc1C,-43.0,4.6,-10.4,i,-0.7,-0.6,-4.3,1.1,
O=C(N/N=C/c1ccccc1C(=O)O)c1cccc(S(=O)(=O)N2CCOCC2)c1,-8.8,·,1.6,·,·,·,0.5,-3.3,
COc1ccccc1C1CC(c2ccc(Br)cc2)=NN1C(=O)c1cccnc1 (stereo not given),·,46.7,·,i,-5.4,4.2,-15.8,-12.0,
O=C(CN1CCOCC1)Nc1nc2ccc([N+](=O)[O-])cc2s1,-21.9,14.2,·,i,-5.4,-7.7,-6.9,-4.5,
COC(=O)Nc1ccc(S(=O)(=O)N2CCN(c3ccc(F)cc3)CC2)cc1,-31.7,23.8,·,i,-3.1,-4.9,-2.8,-1.6,
Cc1ccnc(NC(=O)c2cccc(S(=O)(=O)N3CCCc4ccccc43)c2)c1,-24.6,-0.7,-34.3,i,·,·,-3.3,-5.3,
Brc1ccc(C2Nc3cccc4cccc(c34)N2)s1,-27.6,4.2,·,·,94.1,0.4,6.1,11.2,eIF4H FP inh retest=-3.1;PABP FP inh retest=-0.9
Cc1ncoc1C(=O)N1CCCC(C(=O)c2ccc(Oc3ccccc3)cc2)C1 (stereo not given),19.5,50.6,·,i,-8.0,-7.7,0.4,-2.0,
Cc1cccc(N(Cc2cc3ccccc3[nH]c2=O)S(=O)(=O)c2ccccc2)c1,12.7,·,·,i,5.6,-17.4,-0.4,-0.5,
O=C(NCC(c1cccs1)N1CCOCC1)c1ccccc1NS(=O)(=O)c1cccc([N+](=O)[O-])c1 (stereo not given),3.7,18.9,·,i,4.8,-1.3,-4.5,-8.1,
COCC1CCN(C(=O)c2cc(COc3ccc4c(c3)CCCC4)on2)C1 (stereo not given),7.3,9.8,-3.5,i,-9.7,-4.5,·,·,
Cc1ccc(/C=C/C(=O)NCC2COc3ccccc3O2)o1 (stereo not given),8.4,?,·,i,3.8,2.8,-9.5,2.5,
Cc1ccc(NC(=O)CSc2nc(O)c(Cc3ccccc3)c(=O)n2-c2ccccc2)cc1,-3.8,-6.3,1.2,i,-0.3,-3.2,1.7,2.6,
Cc1ccc(-c2nc3ccc(C)cn3c2Cc2ccccc2C(F)(F)F)cc1,-11.4,·,-20.3,·,·,·,-0.1,4.2,
Cc1cccc(-n2ncc3c(NCCCO)ncnc32)c1,-42.2,-14.1,-14.9,i,8.3,-6.8,2.8,2.2,
COc1ccc(C(=O)CSc2nnc(CNc3nc(-c4ccccc4)cs3)n2C)cc1,·,-1.4,-19.9,i,-3.4,-7.8,-0.9,-6.5,
Cc1ccccc1C(=O)N1N=C(c2ccc(NS(C)(=O)=O)cc2)CC1c1cccs1 (stereo not given),-42.2,6.1,-10.3,i,1.9,0.3,-1.9,-4.5,
Cc1ccc(C2CCN(C(=S)NC3CCCCC3)C2)cc1 (stereo not given),2.1,2.5,-3.1,i,7.5,-13.5,-7.8,-11.8,
CCOc1ccc(C(C(=O)NCC2CCCO2)N(C(=O)c2snc(C(N)=O)c2N)c2ccccc2F)cc1 (stereo not given),19.8,-3.8,-3.3,i,-4.1,7.4,-5.1,-4.5,
Cn1c(CCc2nc3ccccc3[nH]2)n[nH]c1=S,14.0,-15.1,·,i,5.9,-5.4,-4.9,0.7,
Cc1ccc(-n2cnc3cc(NCc4cccs4)ccc32)cc1,-66.7,6.8,-17.4,i,-4.2,7.9,-0.1,1.0,
COCCN(C(=O)COC(=O)/C=C/c1ccc(OC)c(OC)c1)c1c(N)n(Cc2ccccc2)c(=O)[nH]c1=O,-5.6,·,18.9,i,·,·,1.2,2.3,
COc1ccc(Cl)cc1Nc1nc(C)cc(=O)[nH]1,·,-13.7,-13.3,i,-3.8,5.3,-2.1,0.5,
Cc1ccc2nc3n(c(=O)c2c1)CCC3,·,-29.6,-28.6,i,5.4,8.8,4.3,-1.3,
Cc1ccc(C(=O)N2[C@@H]3CN(C)C(=O)[C@@]2(Cc2ccccc2)[C@H]2C(=O)N(Cc4ccccc4)C(=O)[C@@H]32)cc1,28.1,·,11.5,·,·,·,1.4,6.0,
N#Cc1cccc(NC(=O)CCNC(=O)c2ccccc2Cl)c1,-1.1,-1.1,-24.9,i,-10.7,-3.1,-3.2,1.6,
# Next part:
SMILES,HIV Env fusion,CSC inhib,UUG fidelity,Rce1 inhib,eIF4H FP inh,PABP FP inh,MT1-MMP act inh,MT1-MMP act inh RFP,others
Cc1oc2ccccc2c1CC(=O)NCCCN(C)C,-10.9,3.8,14.0,i,8.1,6.8,-0.9,1.4,
O=C(OCCOc1ccccc1Cl)c1ccc(-n2cnnn2)cc1,-35.4,3.0,-7.8,i,-5.3,-7.1,2.5,-3.2,
CN(C)CC/C=C1/c2ccccc2COc2ccccc21,·,-0.5,·,i,1.1,3.5,·,·,
COC(=O)C1=CN(CCCN2CCCC2=O)C=C(C(=O)OC)C1c1cccs1,3.6,-4.9,-12.2,?,-4.1,3.6,3.7,-2.2,
O=C(NCCC1=CCCCC1)C(=O)NCCc1ccc(Cl)cc1,19.4,-31.0,-9.2,i,6.2,-0.8,-0.8,-0.9,

# These rows are one share of the data; count on the stated rates, not on these rows.
